p53 HeLa: p53 stabilisation in HPV-positive human cells, imaging, p53-positive nuclei imaging, 24 h, 48 h (AID 1508601) | p53-positive nuclei imaging, 48 h; stronger effect = higher value; some inactives read as strong as hits | p53-positive nuclei, normalised, % at 11 µM unless noted | 5,700 compounds, 1% hits;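 active = mean of two plates above 50% at 24 h or at 48 h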;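 note: HPV-positive HeLa cells with a fluorescent p53 stability reporter; 0% = vehicle and 100% = proteasome inhibitor control; doses worked out from stocks diluted about 900-fold with the highest of each compound shown; many of its hits are not listed in these tables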
p53 HeLa cells 24 h: also measured in p53 HeLa; calls as there; nuclei count, normalised, %; measured here: cell number at 24 h;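 100% = vehicle wells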
p53 HeLa p53 24 h: second read-out of p53 HeLa, no call of its own (marks repeat the call); p53-positive nuclei, normalised, %; measured here: p53 positive nuclei at 24 h;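 0% = vehicle and 100% = positive control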
p53 HeLa cells 48 h: second read-out of p53 HeLa, no call of its own (marks repeat the call); nuclei count, normalised, %; measured here: cell number at 48 h;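 100% = vehicle wells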
* marks the source's active call; other numbers are inactive results; [ ] = remark or other dose. The list is partial (hit frequency here may not be typical).

#1 N#CC(C#N)=NNc1cccc(Cl)c1
#2 O=[N+]([O-])C=Cc1ccc2c(c1)OCO2
#3 CC1=C(O)C(=O)C=C2C1=CC=C1[C@@]2(C)CCC2(C)C3C[C@](C)(C(=O)O)CC[C@]3(C)CC[C@]12C (stereo not given in full)
#4 Cc1c(N)nc(C(CC(N)=O)NCC(N)C(N)=O)nc1C(=O)NC(C(=O)NC(C)C(O)C(C)C(=O)NC(C(=O)NCCc1nc(-c2nc(C(=O)NCCC[S+](C)C)cs2)cs1)C(C)O)C(OC1OC(CO)C(O)C(O)[C@H]1OC1OC(CO)C(O)C(OC(N)=O)C1O)c1cnc[nH]1 (stereo not given in full)
#5 CC(=O)Nc1ccc(OC[C@](C)(O)C(=O)Nc2ccc([N+](=O)[O-])c(C(F)(F)F)c2)cc1

Screen / compound no.	1	2	3	4	5
p53 HeLa	0.1	0.3[3.7 µM]	9.5	-0.1[3.7 µM]	-0.6[3.7 µM]
p53 HeLa cells 24 h	65.3	91.6	46.3	66.9	113.2
p53 HeLa p53 24 h	0.1	0.0	10.2	-0.4	-0.3
p53 HeLa cells 48 h	76.9	92.2	28.8	55.8	112.1

#6 C=C1C[C@@H]2[C@@H](CC[C@@]3(C)C(=O)CC[C@@H]23)[C@@]2(C)C=CC(=O)C=C12
#7 O=C1CSC(c2ccccc2Cl)c2cc(Cl)ccc2N1 (stereo not given)
#8 C[C@]12CCC(=O)C(O)=C1CC[C@@H]1[C@H]2CC[C@]2(C)C(=O)CC[C@@H]12
#9 CC1CC[C@H]2C(C)C(=O)O[C@@H]3O[C@@]4(C)CC[C@@H]1[C@]32OO4 (stereo not given in full)
#10 CN1CCN(C(=O)OC2c3nccnc3C(=O)N2c2ccc(Cl)cn2)CC1 (stereo not given)

Screen / compound no.	6	7	8	9	10
p53 HeLa	-0.6[3.7 µM]	-0.1	0.0[3.7 µM]	0.0	0.1
p53 HeLa cells 24 h	113.6	92.5	113.5	100.3	102.1
p53 HeLa p53 24 h	-0.3	0.1	-0.1	-0.1	-0.1
p53 HeLa cells 48 h	112.1	98.0	116.7	104.7	98.2

Arranged by count of non-hydrogen atoms (smallest number first): some entries from above.
#2 O=[N+]([O-])C=Cc1ccc2c(c1)OCO2
#7 O=C1CSC(c2ccccc2Cl)c2cc(Cl)ccc2N1 (stereo not given)
#6 C=C1C[C@@H]2[C@@H](CC[C@@]3(C)C(=O)CC[C@@H]23)[C@@]2(C)C=CC(=O)C=C12
#10 CN1CCN(C(=O)OC2c3nccnc3C(=O)N2c2ccc(Cl)cn2)CC1 (stereo not given)
#5 CC(=O)Nc1ccc(OC[C@](C)(O)C(=O)Nc2ccc([N+](=O)[O-])c(C(F)(F)F)c2)cc1
#3 CC1=C(O)C(=O)C=C2C1=CC=C1[C@@]2(C)CCC2(C)C3C[C@](C)(C(=O)O)CC[C@]3(C)CC[C@]12C (stereo not given in full)
#4 Cc1c(N)nc(C(CC(N)=O)NCC(N)C(N)=O)nc1C(=O)NC(C(=O)NC(C)C(O)C(C)C(=O)NC(C(=O)NCCc1nc(-c2nc(C(=O)NCCC[S+](C)C)cs2)cs1)C(C)O)C(OC1OC(CO)C(O)C(O)[C@H]1OC1OC(CO)C(O)C(OC(N)=O)C1O)c1cnc[nH]1 (stereo not given in full)

Screen / compound no.	2	7	6	10	5	3	4
p53 HeLa	0.3[3.7 µM]	-0.1	-0.6[3.7 µM]	0.1	-0.6[3.7 µM]	9.5	-0.1[3.7 µM]
p53 HeLa cells 24 h	91.6	92.5	113.6	102.1	113.2	46.3	66.9
p53 HeLa p53 24 h	0.0	0.1	-0.3	-0.1	-0.3	10.2	-0.4
p53 HeLa cells 48 h	92.2	98.0	112.1	98.2	112.1	28.8	55.8

New compounds follow:
#11 C[C@](O)(COc1ccc(C#N)cc1)C(=O)Nc1ccc(C#N)c(C(F)(F)F)c1
#12 CC(C)N(CCNC(=O)CN1CCCC1=O)C(C)C
#13 NOCCC(N)C(=O)O (stereo not given)
#14 CCOc1ccccc1-n1c(C(C)N2CCN(C(=O)COc3ccc(Cl)cc3)CC2)nc2ccccc2c1=O (stereo not given)
#15 COc1ccc2c3c([nH]c2c1)C(CC(C)C)N1C(=O)C(CCC(=O)OC(C)(C)C)NC(=O)C1C3 (stereo not given)

Screen / compound no.	11	12	13	14	15
p53 HeLa	-0.5[3.7 µM]	-0.1[3.7 µM]	0.0	0.0	0.0
p53 HeLa cells 24 h	113.9	102.1	97.4	109.3	118.1
p53 HeLa p53 24 h	-0.3	-0.3	-0.1	-0.1	0.0
p53 HeLa cells 48 h	110.1	100.0	102.4	108.4	108.4

#16 CC[C@H]1C=CC=CCC(C)C(O)[C@](C)(O)C(=O)C(C)C(O)C(C)C(=O)C(C)C(O)C(C)C=CC(=O)O[C@@H]2C(C)[C@@H](CC1)O[C@@]1(CCC(C)[C@@H](CC(C)O)O1)C2C (stereo not given in full)
#17 NCCc1ccc(S(=O)(=O)F)cc1
#18 CC(=O)c1c(O)c(C)c(O)c(Cc2c(O)c3c(c(C(=O)C=Cc4ccccc4)c2O)OC(C)(C)C=C3)c1O
#19 CCC(C(N)=O)N1CCCC1=O (stereo not given)
#20 Clc1ccc(CCC(Cn2ccnc2)Sc2c(Cl)cccc2Cl)cc1 (stereo not given)

Screen / compound no.	16	17	18	19	20
p53 HeLa	0.1	0.1	0.2	0.0[3.7 µM]	0.0[3.7 µM]
p53 HeLa cells 24 h	83.9	116.0	89.5	97.8	80.6
p53 HeLa p53 24 h	0.4	0.2	0.1	-0.2	-0.3
p53 HeLa cells 48 h	81.4	114.5	89.1	96.5	92.1

#21 NC(=O)CN1CC(O)CC1=O (stereo not given)
#22 CCN1C[C@]2(OC(=O)c3ccccc3NC(C)=O)CCC(OC)[C@]34C1C(C[C@H]23)[C@@]1(O)CC(OC)[C@H]2C[C@H]4[C@]1(O)C2OC (stereo not given in full)
#23 CC(C)(C)c1cc(C=C(C#N)C#N)cc(Br)c1O
#24 CCCCCOc1ccc(C(=O)c2cccc3ccccc23)c2ccccc12
#25 O=[N+]([O-])c1ccc(O)c([N+](=O)[O-])c1

Screen / compound no.	21	22	23	24	25
p53 HeLa	-0.2[3.7 µM]	-0.2[3.7 µM]	-0.5[3.7 µM]	0.0	0.1
p53 HeLa cells 24 h	119.2	116.6	114.2	88.5	105.2
p53 HeLa p53 24 h	-0.3	-0.5	-0.2	-0.1	-0.1
p53 HeLa cells 48 h	115.1	109.8	111.6	92.3	102.8

#26 O=c1[nH]c2ccc(Cl)cc2c(NC2CN3CCC2CC3)c1-c1nc2ccccc2[nH]1 (stereo not given)
#27 CC1CNCCc2ccc(Cl)cc21 (stereo not given)
#28 CN1CCc2cc3c(cc2[C@H]1[C@@H]1OC(=O)c2c1ccc1c2OCO1)OCO3
#29 CCCN1CCO[C@@H]2c3cc(O)ccc3OC[C@@H]21
#30 COC1=C[C@@H]2C3Cc4ccc(OC)c(O)c4[C@]2(CCN3C)CC1=O
#31 O=C1C(=O)c2cccc3cccc1c23
#32 CC[n+]1c(-c2ccccc2)c2cc(N)ccc2c2ccc(N)cc21

Screen / compound no.	26	27	28	29	30	31	32
p53 HeLa	34.0[3.7 µM]	0.0	0.0[3.7 µM]	-0.2[3.7 µM]	-0.3[3.7 µM]	0.3	103.2*
p53 HeLa cells 24 h	52.7	98.5	113.9	111.5	100.7	108.6	83.1*
p53 HeLa p53 24 h	8.3	-0.1	-0.3	-0.5	-0.3	0.3	127.3*
p53 HeLa cells 48 h	33.7	102.2	103.9	107.6	103.7	115.4	75.3*

In a second layout: entries from further up.
Results follow in this order: p53 HeLa | p53 HeLa cells 24 h | p53 HeLa p53 24 h | p53 HeLa cells 48 h
12. CC(C)N(CCNC(=O)CN1CCCC1=O)C(C)C
→ -0.1[3.7 µM] | 102.1 | -0.3 | 100.0
16. CC[C@H]1C=CC=CCC(C)C(O)[C@](C)(O)C(=O)C(C)C(O)C(C)C(=O)C(C)C(O)C(C)C=CC(=O)O[C@@H]2C(C)[C@@H](CC1)O[C@@]1(CCC(C)[C@@H](CC(C)O)O1)C2C (stereo not given in full)
→ 0.1 | 83.9 | 0.4 | 81.4

Source: PubChem BioAssay
